Screening results as filed in PubChem.
BJeLR lethal: BJeLR cell viability loss; BJeLR (HRASV12) viability, CellTiter-Glo ATP luminescence, 48 h; reference of the scale not given here; inhibition, % (test concentration not listed); hit rate 0.17% among 300,000;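 active = replicate mean above 50%; inconclusive = above 50% but judged a plate artefact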;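 also: 50 nL library stock added to about 25 µL; numbers are from one replicate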
PrP UTR inh: inhibition of PrP 5' UTR reporter expression. cell-based PrP 5' UTR mRNA reporter, plate reader. inhibition, % (concentration not given with the values). hit rate 0.35% among 340,000. AID 488862;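 active = every replicate at 50% or more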;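 also: 0 = median of the neutral control wells; tested in H4 reporter cells; numbers are from one replicate; inactives centre near -14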
Sa RN4220 lethal: S. aureus RN4220 growth inhibition | OD600, 16 h | inhibition, % (concentration not given with the values) | hit rate 0.33% among 330,000;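 active = z-score of -3 or lower and OD600 up to 0.18 on both plates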;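 also: plate controls were untreated cells for no effect and reference antibiotic for full effect; stock transfer was 100 nL into about 80 µL; one replicate is shown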
Bead autofluor: counter-screen for toxin protease inhibitors: compound fluorescence; hit rate 3.1% among 360,000; AID 624483; fluorescence intensity (concentration not given with the values); compound autofluorescence counterscreen, microsphere flow cytometry; stronger effect = higher value;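 active = at least 3 SD above the mean of all compounds, about 16000 in these data; inconclusive = too few beads counted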;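 also: 100 nL of 1 mM stock went into each well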
ugtP null kill: kills S. aureus RN4220 lacking UgtP; S. aureus RN4220 ugtP deletion, OD600 growth, 16 h; some inactives read as strong as hits; growth inhibition, % (no concentration beside the values); hit rate 0.54% among 330,000; AID 1259309;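 active = z-score under -3 and OD600 up to 0.15 on both plates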;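 also: plate controls were untreated wells for no effect and antibiotic for full effect; wells of about 80 µL received 100 nL stock; the first replicate is given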
Mtb hypoxia rep: Mtb hypoxia fluorescent reporter inhibition | fluorescence inhibition, % (concentration not given with the values) | hit rate 0.1% among 300,000 | M. tuberculosis hypoxia-regulated fluorescent reporter, fluorescence;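 active = 35 to 45% if threefold the growth effect, above 45% if 1.5-fold the growth effect; inactive = the rest, general growth blockers included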;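 also: wells of about 50 µL received 100 nL stock; 0% = vehicle wells and 100% = reference inhibitor wells; whole bacteria with a GFP reporter of the hypoxia response; strong numbers were not always called active; many hits fall short of the cut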
Mtb hypoxia rep growth: recorded beside Mtb hypoxia rep, whose call it bears; growth inhibition, %; measured here: M. tuberculosis growth (absorbance);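 0% = vehicle and 100% = reference antibiotic; read after six days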
* marks the source's active call; other numbers are inactive results; ? = inconclusive; . = not tested or not shown.

Structure	BJeLR lethal	PrP UTR inh	Sa RN4220 lethal	Bead autofluor	ugtP null kill	Mtb hypoxia rep	Mtb hypoxia rep growth
COC(=O)c1ccccc1NC(=O)Cn1c(=O)n(CCC(=O)NC2CCN(Cc3ccccc3)CC2)c(=O)c2ccccc21	4	-1	1.6	5051	-4	3	5
O=C(Cn1ncc(Cl)c(Cl)c1=O)NC1CCS(=O)(=O)C1 (stereo not given)	6	-4	6.3	5133	5	-9	-1
COc1cc(Br)cc(-c2nc3c(c(=O)[nH]c(=O)n3Cc3ccccc3)n2C)c1O	-1	-8	0.9	6137	-23	7	5
CC(C)Cc1csc(NC(=O)c2ccc(Br)cc2)c1C(=O)O	-2	-12	11	4613	8	14	7
CN(C)S(=O)(=O)c1ccc(C(=O)Nc2cccc(C(=O)O)c2)cc1	-2	2	-3.1	4698	-1	.	.
O=C(CSc1nc2c(c(=O)[nH]1)CCC2)Nc1ccccc1Cl	-1	-17	3.4	4128	8	11	0
CCN(CC(=O)Nc1ccccc1C(F)(F)F)C(=O)c1ccc2[nH]c3c(c2c1)CC(C)CC3 (stereo not given)	-9	-12	-1.3	5455	-17	-4	0
COc1cccc(CC2(CO)CCCN(Cc3nc(-c4cccs4)oc3C)C2)c1 (stereo not given)	-2	-8	5.4	4854	10	2	2
CC1CCCCC1NC(=O)CN1CCC(NC(=O)c2ccc([N+](=O)[O-])cc2)CC1 (stereo not given)	9	-3	1.2	3449	4	13	7
O=C(CN1CCCCC1)N/N=C/c1cccc(C(F)(F)F)c1	4	-7	.	4575	.	.	.
COc1ccc(Cl)cc1NC(=O)C1CC(c2c(F)cccc2Cl)=NO1 (stereo not given)	2	-19	3.2	3506	9	18	11
Cc1ccc(C)n1-c1cccc(C(=O)Nc2ccccc2)c1	-2	-18	0.4	4122	-8	4	10
Cc1ccc(C(=O)Nc2ccccc2OC(F)F)cc1	-13	-20	6.6	23774*	1	16	1
NC(=O)CC[C@@H]1NC(=O)[C@H](CO)NC(=O)c2cc([N+](=O)[O-])cc(I)c2OCC[C@@H](C(N)=O)NC1=O	1	-8	.	4325	.	.	.
c1cn(-c2ncnc3sc4c(c23)CCCC4)cn1	5	-11	1.9	5132	-4	.	.
O=C(O)c1ccc(-n2c(-c3ccc(Br)cc3)n[nH]c2=S)cc1	11	-8	.	3343	.	.	.
COc1ccc(NC(=S)Nc2ccc(S(N)(=O)=O)cc2)c(C)c1	8	-9	0.1	1912	6	2	-2
Cc1cccc(CSCc2ccc(C(=O)NCC3CCCO3)o2)c1 (stereo not given)	3	-5	1.8	4099	2	11	2
COc1ccc2c(c1)c(C(=O)N/N=C/c1cccs1)c(C)n2C	7	3	.	4292	.	.	.
O=C(/C=C\Nc1ccc2c(c1)OCO2)c1ccc2c(c1)OCO2	-5	-10	3.5	4197	1	8	9
O=C1CC(NNc2nc3ccccc3s2)C(=O)N1c1ccccc1 (stereo not given)	17	-28	-2.7	10450	-2	-2	4
Cc1ccc(S(=O)(=O)N(C)c2ccc(OC(=O)COc3ccccc3)cc2)cc1	.	-2	6.3	?	7	3	0
CC(=O)NC(=S)NNC(=O)COc1ccc([N+](=O)[O-])cc1	-3	-15	4.8	4420	2	-4	6
COc1nc(OC)nc(N2CCC(C(=O)NC3CC3)CC2)n1	-3	-22	8.1	4240	5	6	5
COc1ccc(-n2c(Cn3c(=O)sc4ccccc43)nnc2SCC(=O)N2CCCCC2)cc1	.	11	4.3	4185	10	.	.
CCOC(=O)c1sc(NC(=O)c2cc3c(s2)CCC(C)C3)nc1C (stereo not given)	8	-31	1.6	2919	5	1	-1
C=CCSc1nn2c(=O)c3ccccc3nc2s1	7	-68	-2.9	9315	-2	8	-1
COc1ccc(C(=O)NC(=S)Nc2ccc3[nH]c(=O)[nH]c3c2)c(OC)c1	3	-7	.	5334	.	.	.
COc1ccc(Cn2c(CCC(=O)Nc3ccc(CC#N)cc3)nc3cccnc32)cc1	-2	-37	4.2	22433*	-9	-1	5
O=C(c1cccc2nccnc12)N1CCCC(Nc2ccc(F)c(F)c2)C1 (stereo not given)	0	0	-0.8	5150	6	12	10
CCOc1ccccc1N1CCN(c2nc3ccccc3nc2C(C#N)C(=O)OC)CC1 (stereo not given)	-8	-10	2.1	2495	0	.	.
COc1cc(OC)c(N(C)C(=O)CCNC(=O)Cn2cnc3ccccc3c2=O)cc1Cl	-14	-20	1.7	6553	5	1	-2
Cn1nc(OCC(N)=O)ccc1=O	-3	-17	-0.4	4589	2	14	12
CC(NC(=O)c1cc(=O)[nH]c2ccc(Br)cc12)c1ccccc1 (stereo not given)	11	.	0.6	.	1	1	8
COCCN(CCOC)S(=O)(=O)c1ccc(C(=O)Nc2nnc(COC)o2)cc1	1	-16	11	2173	2	-4	-17
Cc1cccc(NC(=O)C2CCCN(c3nc(C)cc(C)n3)C2)c1 (stereo not given)	16	-13	1.4	7840	5	8	10
COc1ccccc1N1CCN(C2CCN(C(=O)COc3ccccc3)CC2)CC1	-23	-14	3.1	4543	1	2	15
CC(=O)Nc1ccc(S(=O)(=O)NC(CC(=O)O)c2ccc(OC(C)C)cc2)cc1 (stereo not given)	10	-3	2.5	4442	3	.	.
CC(C)(C)c1cc(C=NO)cc(C(C)(C)C)c1O	.	.	7.0	.	10	18	9
O=C1c2ccccc2C(=O)N1n1cccc1	15	-8	4.4	2497	3	7	19
O=S(=O)(NCc1ccco1)c1ccc(Cl)s1	.	-9	5.7	3318	3	15	11
CNC(=O)NC(=O)C(OC(=O)Cc1cccc(C(F)(F)F)c1)c1ccccc1 (stereo not given)	-2	-10	0.0	3035	2	4	4
O=C(CSc1nnc2sc3ccccc3n12)c1ccco1	-6	-37	0.3	6272	5	10	2
O=C(CSc1nc2ccccc2o1)N/N=C/c1ccc(O)c(O)c1	-12	-83	.	3785	.	.	.
O=C(COc1cccc([N+](=O)[O-])c1)NN=Cc1ccco1	.	.	3.9	.	8	10	17
Brc1ccc(-n2cc(-c3ccccc3)c3c(NN4CCOCC4)ncnc32)cc1	2	-14	-2.3	9027	8	3	-11
Cc1ccc(S(=O)(=O)NNC(=O)C2CCN(Cc3ccccc3)CC2)cc1	-24	0	-0.3	3812	-4	7	12
CC(C)CCCN1C(Nc2ccccc2)=NCC1C (stereo not given)	.	.	6.7	.	1	10	13

One compound at a time, as listed above. Order of screens: BJeLR lethal | PrP UTR inh | Sa RN4220 lethal | Bead autofluor | ugtP null kill | Mtb hypoxia rep | Mtb hypoxia rep growth
CC(C)CCCN1C(Nc2ccccc2)=NCC1C (stereo not given) in the list: . | . | 6.7 | . | 1 | 10 | 13
O=C(CSc1nc2ccccc2o1)N/N=C/c1ccc(O)c(O)c1 in the list: -12 | -83 | . | 3785 | . | . | .
O=C1c2ccccc2C(=O)N1n1cccc1 in the list: 15 | -8 | 4.4 | 2497 | 3 | 7 | 19

(next part)
Structure	BJeLR lethal	PrP UTR inh	Sa RN4220 lethal	Bead autofluor	ugtP null kill	Mtb hypoxia rep	Mtb hypoxia rep growth
COc1ccccc1CN1[C@@H](CC(C)=O)c2cc(C(F)(F)F)ccc2S1(=O)=O	-1	-8	.	3522	.	.	.
COc1ccc(S(=O)(=O)NCCC(=O)NC2CCCCCCC2)cc1	6	-19	0.4	11518	-7	4	6
COCCCn1nnnc1SCC(=O)Nc1ccc2c(c1)OCCO2	4	-26	2.9	4197	3	14	0
Cc1ccc(-c2cc(-c3n[nH]c(=S)n3C)c3ccccc3n2)cc1	0	-12	6.1	3113	-11	3	4
CC(=O)c1oc2ccccc2c1NC(=O)CN1CCCCC1	1	-25	4.6	8663	7	9	4
Cc1cc(OCC#N)nc(N)n1	-4	-12	2.0	2878	4	-3	2
COc1ccc(N2CCN(C(=O)CCC(=O)NNc3nc4ccccc4c4nc(C)nn34)CC2)cc1	-2	1	-0.5	5765	4	1	-4
C/C(=N\Nc1ccc(Cl)c(C(=O)O)c1)c1ccc2c(c1)OCO2	5	-37	.	3981	.	.	.
O=C(Nc1nsc(-c2ccccc2)n1)c1ccncc1	7	-9	1.6	4823	4	.	.
CCC(C)NC(=O)c1ccccc1-c1ccccc1C(=O)NC(C)CC (stereo not given)	6	-64	-1.3	5013	1	10	15
Cc1ccc2[nH]c(CNC(=O)C3CCCCC3)cc2c1	4	-10	-0.8	2959	-2	1	5
COc1ccc([N+](=O)[O-])cc1NC(=O)C1(c2ccccc2)CCOCC1	12	-5	4.6	3851	1	6	13
CCOC(=O)c1cn(CC)c2cc(N3CCOCC3)c(F)cc2c1=O	-5	-19	2.8	4963	0	.	.
COc1ccc(-n2ncc3c(NCC(C)C)ncnc32)cc1	-6	-25	5.3	2513	-4	.	.
CCOC(=O)C1=C(Nc2ccc(C)cc2)CC(C)(O)C(C(=O)OCC)C1c1ccccc1 (stereo not given)	-8	-4	-0.3	3899	7	6	18
O=C(NCCCNC(=O)c1cnccn1)c1ccc(Cl)cc1	-2	-2	4.5	4289	1	-5	-6
CC(=NNS(C)(=O)=O)c1ccccc1	.	.	6.1	.	-2	11	10
COc1cc(/C=C/C(=O)O)cc(OC)c1	-5	-1	.	3069	.	.	.
O=C(c1ccc2c(c1)OCO2)N1CCN(c2cccc(C(F)(F)F)c2)CC1	3	-20	6.3	2858	1	3	-5
CC(C)c1ccc(NC(=O)N2CCc3ccccc3C2)cc1	-1	-87	-3.6	1941	-4	5	13
COc1ccccc1N1CCN(C(=O)c2ccc(N(C)S(=O)(=O)c3ccccc3)cc2)CC1	-7	-10	4.9	6096	2	17	11
CCC(=NNc1ccccc1)c1cnnc(SC)n1	.	.	-9.3	.	-3	20	13
N#CC1(c2ccc(NC(=O)c3ccccc3F)cc2)CCCC1	4	-23	7.1	7321	-3	5	1
COc1ccc(/C=N/NC(=O)c2ccc(CSc3nncn3C)cc2)cc1OC	-2	-14	.	3395	.	.	.
CCOc1cccc2sc(N(CCCN(C)C)C(=O)c3ccc(S(=O)(=O)N4CCCCCC4)cc3)nc12	-2	-16	-5.4	6254	1	13	-1
CCn1c(C)cc(/C=C2/SC(=S)NC2=O)c1C	3	-14	6.0	2513	7	0	3
CCc1nnc(NC(=O)/C=C/c2ccco2)s1	-2	-58	0.6	2625	-7	-3	5
Oc1ccc(/C=N/Nc2nc(-c3cccnc3)nc3ccccc23)c(O)c1	-7	-35	.	6016	.	.	.
CN(C(=O)CC1C(=O)NCCN1C/C=C/c1ccccc1)C1CCOCC1 (stereo not given)	6	7	11	3294	6	-5	-8
CC(=O)CC(C)(C)S(=O)(=O)c1ccc(Oc2ccc(S(=O)(=O)C(C)(C)CC(C)=O)cc2)cc1	9	-11	-6.5	2612	-1	15	6
Cc1c(C)n(CCC(=O)O)c2ccccc12	-3	-26	4.3	4362	-3	3	7
O=C(CCc1nc2ccccc2[nH]1)NCc1ccc2c(c1)OCO2	-2	-13	-9.1	5929	0	10	13
COCCSc1ccccc1C(=O)NCc1cccnc1	5	-21	-3.9	4412	0	17	10
Cn1c(NC(=O)Cc2cccc3ccccc23)cc(=O)n(C)c1=O	1	-14	4.1	4453	11	11	6
CC(C)C(CO)N(Cc1cccc(F)c1)c1nc(Nc2cccc(Cl)c2)c2ncn(C(C)C)c2n1 (stereo not given)	.	.	-3.8	.	7	15	4
Cc1cc(C)nc(N2C(=O)CC(Cc3ccc(Cl)cc3)C2=O)n1 (stereo not given)	1	-17	4.9	3432	6	11	3
Cc1cccc(N2CCN(C(=O)CSc3ccc4c(c3)OCCO4)CC2)c1C	.	-8	5.4	2970	12	0	6
CCOc1ccc(C2/C(=C(\O)c3ccc4c(c3)OCCO4)C(=O)C(=O)N2CCCN2CCOCC2)cc1 (stereo not given)	-7	-13	3.5	5160	7	4	8
CCN(CC)C(=O)[C@H]1CC(CC(=O)NCCCOC)C(=O)N2CCc3c([nH]c4ccccc34)[C@]12C (stereo not given in full)	.	-38	-0.4	2975	8	1	-1
